# TRPML1 ag: human mucolipin-1 channel agonism. activation, % (test concentration not listed). TRPML1-expressing cells, Ca2+ dye fluorescence, FDSS; host cell line not named in the record; reference of the full effect not given here. 0.12% of 410,000 active; in the data active = activation above about 50%; inconclusive = about 30% to 50%; inactive = below about 30%; also: 0% is about no effect; the text of the record puts the active cut at 80%
# Target sequence (Q9GZU1 whole entry, looked up): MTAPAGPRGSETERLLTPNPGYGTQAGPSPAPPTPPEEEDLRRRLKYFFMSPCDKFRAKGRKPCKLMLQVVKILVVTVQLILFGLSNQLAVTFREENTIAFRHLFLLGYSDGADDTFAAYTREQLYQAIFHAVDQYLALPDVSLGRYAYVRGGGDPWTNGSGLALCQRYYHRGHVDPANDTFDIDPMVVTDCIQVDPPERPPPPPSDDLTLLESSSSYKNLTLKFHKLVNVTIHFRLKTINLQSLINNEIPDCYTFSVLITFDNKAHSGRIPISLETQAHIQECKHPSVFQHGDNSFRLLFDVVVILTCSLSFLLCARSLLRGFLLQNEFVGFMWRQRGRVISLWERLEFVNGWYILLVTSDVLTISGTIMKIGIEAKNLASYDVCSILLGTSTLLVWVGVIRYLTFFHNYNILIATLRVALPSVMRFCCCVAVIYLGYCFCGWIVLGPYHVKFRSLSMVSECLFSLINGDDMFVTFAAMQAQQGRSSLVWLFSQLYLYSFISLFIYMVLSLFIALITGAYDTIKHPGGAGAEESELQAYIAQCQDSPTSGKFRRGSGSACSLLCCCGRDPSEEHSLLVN
#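 Tetracycline-induced TRPML1-DL cells are seeded and incubated overnight before loading with a no-wash Ca2+ dye and quencher. Agonist activity is taken from the 110 s fluorescence read following compound pin-transfer on an FDSS, before EC80 54-4 challenge.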
# D2 potentiator: potentiates the human D2 dopamine receptor allosterically; DiscoveRx D2 beta-arrestin cells, luminescence, 90 min; 100% = 57 uM dopamine signal; P14416; potentiation, % (test concentration not listed); 0.23% of 360,000 active; active = potentiation of 50% or more; inconclusive = 30% to 50%; inactive = 30% or less;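 also: compound concentration not given in the record; tested on top of an EC20 dose of dopamine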
# Target sequence (P14416 whole entry, looked up): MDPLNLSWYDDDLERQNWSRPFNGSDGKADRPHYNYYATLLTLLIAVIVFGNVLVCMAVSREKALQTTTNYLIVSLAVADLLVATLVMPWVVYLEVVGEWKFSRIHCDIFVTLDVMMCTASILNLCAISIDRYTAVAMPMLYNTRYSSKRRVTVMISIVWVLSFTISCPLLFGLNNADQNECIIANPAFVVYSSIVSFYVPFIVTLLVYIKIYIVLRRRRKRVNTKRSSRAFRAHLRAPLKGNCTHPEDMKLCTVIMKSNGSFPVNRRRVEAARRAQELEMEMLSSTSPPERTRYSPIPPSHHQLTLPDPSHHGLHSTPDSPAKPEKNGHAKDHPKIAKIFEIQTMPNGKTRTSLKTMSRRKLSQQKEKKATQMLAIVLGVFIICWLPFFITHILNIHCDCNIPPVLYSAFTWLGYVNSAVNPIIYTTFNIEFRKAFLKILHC
#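 PathHunter beta-arrestin assay in DiscoveRx D2 cells. Compounds were added with an EC20 of dopamine (50 nM final) for 90 min at 37 deg C. Luminescence was read 1 h after detection reagent, with 57 uM dopamine as the EC100 control.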
# Six1-Eya2 inh: Six1/Eya2 interaction inhibition; AlphaScreen GST-Six1/His-Eya2 binding, biochemical; hits give low values; control for the full effect not named in the record; activity change, % (test concentration not listed); 0.56% of 360,000 active; AID 651725; in the data active = activity change below about -65%; inconclusive = about -30% to -65%; inactive = above about -30%; also: % is scaled to controls: 0 for no effect and ±100 for the full control effect; compound concentration not given in the record
#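 AlphaScreen luminescence read after one hour at 37 °C in darkness. Pin-transferred compounds met GST-Six1 and His-Eya2 protein (5X stock 250 nM/500 nM) plus glutathione donor and Ni-chelate acceptor beads (5X, 50 ug/mL).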
# CtBP-E1A inh: CtBP/E1A binding inhibition; AlphaScreen GST-E1A/His-CtBP binding, 1536-well; hits give low values; control for the full effect not named in the record; activity change, % (test concentration not listed); 0.49% of 340,000 active; in the data active means activity change below about -65%; inconclusive means about -30% to -65%; inactive means above about -30%; also: % is scaled to controls: 0 for no effect and ±100 for the full control effect; compound concentration not given in the record
#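 Protein mix (5X: 125 nM each GST-E1A, His-CtBP) was incubated with pinned compound 2 h at 37 deg C in dark, in 50 mM Tris pH 8.0 buffer with 300 mM NaCl. Glutathione donor and nickel acceptor beads followed; AlphaScreen signal read after 1 h.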
# PINK1 modulator: changes PINK1 expression | Potency, µM (top dose mostly 76.6 µM), inactives show at the top dose activation (PINK1 increase), usual class: activators | PINK1 immunofluorescence, high-content cytometry, 24 h | 0.2% of 410,000 active; active = well fitted activation curve with a large enough effect; inconclusive = small, poorly fitted or top-dose-only effect; inactive = flat fitted curve, though single readings scatter; cell line not stated here;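 also: potency is read from the fitted curve at half-maximal effect; % of control where 0% means no effect; nearly all actives have a fitted effect of over 65% in size; a mitochondrial uncoupler was the plate control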
#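 Measures PINK1 amount and localization on or inside mitochondria by immunofluorescence. Stable cells get compounds at 5 concentrations for 24 hours before fixation and staining; CCCP controls included.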
# D2 ag: human D2 receptor agonism in beta-arrestin assay. P14416. 0.084% of 360,000 active. activation, % (test concentration not listed). DiscoveRx PathHunter D2 beta-arrestin, luminescence, 90 min; 100% = 57 uM dopamine signal; in the data active = activation above about 40%; inconclusive = about 15% to 40%; inactive = below about 15%; also: compound concentration not given in the record; the text of the record calls up to 30% inactive
#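 Agonist mode: compounds alone added to overnight-plated D2 PathHunter cells for 90 min at 37 C, with 57 uM final dopamine (EC100) defining full response. Beta-arrestin recruitment detected by chemiluminescent reagent, read after 1 h at ambient temperature.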
# * marks the source's active call; other numbers are inactive results; ? = inconclusive; . = not tested or not shown; & = joins results of further samples; [ ] = remark or other dose.
Structure	TRPML1 ag	D2 potentiator	Six1-Eya2 inh	CtBP-E1A inh	PINK1 modulator	D2 ag
O=C(CSc1nnc(Cn2c(=O)sc3ccccc32)n1-c1ccccc1)N1CCCCCC1	0.2	-3	-5	-2	-0.9%	-3.0
CC(C)CN(Cc1c(O)ccc2c(=O)c(-c3ccccc3)coc12)CC(C)C	-0.1	-15	-19	-2	3.2%	0.8
O=C(Nc1nc(-c2cc(F)ccc2F)cs1)C1=NN(c2ccccc2)C(=O)CC1	1.3	1	8	-1	-2.5%	2.1
Cc1cccc[n+]1CC(=O)/C=C1\N(C)c2ccccc2C1(C)C	-0.6	8	1	1	1.6%	-3.1
COc1ccc(OC(=O)c2cnc3n(c2=O)CCS3)cc1	0.3	-15	-3	-2	-0.5%	-2.1
CCCOc1ccc(CN2CCOCC2)cc1OC	.	-5	4	-7	1.8%	-2.4
COc1ccc(CCC(=O)OCC(=O)Nc2sccc2C(N)=O)cc1	1.6	-4	-2	-9	5.3%	2.3
CN(Cc1ccncc1)C1CC(=O)N(c2ccc(Cl)cc2)C1=O (configuration not stated)	0.4	-12	1	11	-3.0%	-1.2
N#CC(C#N)=Cc1ccc(OC(=O)c2ccccn2)cc1	-0.4	-1	-68*	?	0.2%	-0.1
O=C(c1ccc(N2CCCC2)c([N+](=O)[O-])c1)N1CCN(S(=O)(=O)c2ccccc2)CC1	-0.7	-6	-20	-8	-0.8%	1.5
CCCS(=O)(=O)Nc1ccc2cn[nH]c2c1	0.2	-3	7	-4	0.3%	-1.7
COc1ccc(N2CCN(CCCNC(=O)c3ccc(CS(=O)(=O)c4ccc(Cl)cc4)o3)CC2)cc1	1.4	-19	-14	.	-1.8%	-3.6
COC(=O)c1c(C)[nH]c(C(=O)C(C)OC(=O)C2CC2C)c1C (configuration not stated)	0.3	-7	-1	.	-0.6%	-1.3
Cc1ccc(NC(=O)CN2CCC(NC(=O)Cc3ccccc3)CC2)c(C)c1	4.1	-12	3	1	-1.3%	1.7
COc1ccc(C(=O)OC(C)CN2CCOCC2)cc1 (configuration not stated)	0.6	-10	5	.	0.1%	-3.4
O=c1[nH]c(=O)n(Cc2ccco2)c2c1C(C(F)(F)F)(C(F)(F)F)N=C(C1CCCCC1)N2	0.8	-9	4	4	8.4%	-1.4
Cc1cc(C)cc(OCC(=O)Nc2ccncc2)c1	-0.9	-7	-1	3	1.8%	4.5
Cn1c2c(c(=O)n(C)c1=O)C(c1ccc(C(F)(F)F)cc1)CC(=O)N2 (configuration not stated)	4.9	12	0	3	1.1%	4.9
CCOC(=O)N1CCN(c2ccnc3cc(Cl)ccc23)CC1	2.0	-5	0	1	0.4%	0.8
CC(=O)N1CCOCCOCCN(C(C)=O)CCOCC1	0.5	-6	4	2	-0.6%	-0.1
CCSc1nc2ccccc2n1CC(=O)OC	-0.2	-6	7	-2	0.0%	-3.6
O=C(Nc1ccc(Cl)cc1)N1CCCN(c2ccc(C(F)(F)F)cc2[N+](=O)[O-])CC1	1.4	-8	-21	-14	8.2%	1.1
O=C(O)C1CCCCC1C(=O)NCCCCc1ccccc1 (configuration not stated)	-0.4	5	9	-11	0.9%	-2.2
CCCc1nnc2n1N=C(c1ccc(C)cc1)CS2	3.1	-18	4	.	2.3%	5.0
Cc1ccc(S(=O)(=O)N(C)C)cc1NC(=O)c1ccc2ccccc2n1	2.5	-11	-7	-6	0.2%	-2.5

# Rewritten as labelled records: entries from further up
CN(Cc1ccncc1)C1CC(=O)N(c2ccc(Cl)cc2)C1=O (configuration not stated)
  TRPML1 ag: 0.4
  D2 potentiator: -12
  Six1-Eya2 inh: 1
  CtBP-E1A inh: 11
  PINK1 modulator: -3.0%
  D2 ag: -1.2

N#CC(C#N)=Cc1ccc(OC(=O)c2ccccn2)cc1
  TRPML1 ag: -0.4
  D2 potentiator: -1
  Six1-Eya2 inh: -68*
  CtBP-E1A inh: ?
  PINK1 modulator: 0.2%
  D2 ag: -0.1

O=C(c1ccc(N2CCCC2)c([N+](=O)[O-])c1)N1CCN(S(=O)(=O)c2ccccc2)CC1
  TRPML1 ag: -0.7
  D2 potentiator: -6
  Six1-Eya2 inh: -20
  CtBP-E1A inh: -8
  PINK1 modulator: -0.8%
  D2 ag: 1.5

CCCS(=O)(=O)Nc1ccc2cn[nH]c2c1
  TRPML1 ag: 0.2
  D2 potentiator: -3
  Six1-Eya2 inh: 7
  CtBP-E1A inh: -4
  PINK1 modulator: 0.3%
  D2 ag: -1.7

# Next part.
Structure	TRPML1 ag	D2 potentiator	Six1-Eya2 inh	CtBP-E1A inh	PINK1 modulator	D2 ag
O=C(Cc1ccccc1)Nc1ccc2oc(-c3cccnc3)nc2c1	-0.2	-11	-3	-12	0.8%	1.0
C=CCNc1nc(N)c([N+](=O)[O-])c(Nc2cccc(Cl)c2)n1	-0.7	1	-6	.	-0.7%	4.1
COc1cc(=O)oc(CCC(C)O)c1C (configuration not stated)	-0.4	-9	2	3	-0.2%	-1.8
C/C(=N\NC(=O)c1ccoc1C)c1ccccc1	0.4	-8	2	-1	1.3%	-0.4
O=C(/C=C/c1ccccc1)NC(N1CCOCC1)C(Cl)(Cl)Cl (configuration not stated)	2.2	-12	-1	10	1.7%	-1.0
Cc1cc(Cl)ccc1OC(C)C(=O)NN=C1CCCCCC1 (configuration not stated)	2.1	-6	1	-9	-2.6%	-4.1
COc1ccc(NC(=O)CCC(=O)Nc2ccc3nc(N4CCOCC4)cc(C)c3c2)c(OC)c1	-0.4	-1	-2	4	8.7%	4.4
CC(=O)c1c(C)[nH]c(C(=O)COC(=O)c2c(-c3ccccc3)noc2C)c1C	1.4	-9	-2	0	4.6%	1.1
COc1ccc2c(CN(Cc3ccccc3)Cc3ccccc3)cc(=O)oc2c1	-0.7	-8	-5	1	1.3%	-6.1
COc1ccc(C(=O)c2ncc(C(F)(F)F)cc2Cl)cc1	-0.3	-7	7	-24	-2.2%	1.8
O=C1CN(S(=O)(=O)c2ccccc2Cl)CCN1	-0.2	-2	1	3	-0.9%	-3.6
Clc1ccc(-c2ccc(-c3nn4c(-c5ccco5)nnc4s3)o2)cc1	1.5	-10	?	?	25%[38.3 µM]	-2.8
Oc1ccccc1/C=N/c1c(-c2ccco2)nc2ccccn12	0.0	?	-11	-7	2.2%	1.5
Cc1ccc(SCC(=O)Nc2cc(S(=O)(=O)N3CCCCC3)ccc2C)cc1	1.7	-15	-2	-5	3.5%	-0.6
CC(C)Cn1cc(C(=O)N2CCN(c3ccccn3)CC2)c2c3ccccc3n(C)c2c1=O	2.5	-13	-9	-12	-4.1%[38.3 µM]	-1.5
CCN1/C(=C/c2ccc3cc(C)cc(C)c3[n+]2CC)Sc2cc(C)ccc21	24	-2	-5	0	0.0%	-4.2
O=C(Nc1ccc(Nc2ccccc2)cc1)c1c(Cl)cccc1Cl	3.9	1	-17	-10	-0.2%	5.3
CC(Oc1cccc([N+](=O)[O-])c1)C(=O)NCCC1=CCCCC1 (configuration not stated)	0.3	2	1	1	-0.4%	0.6
Clc1ccc(OCCNCCc2ccccc2)cc1	-0.4	-6	10	.	11%	-0.3
COc1ccc(C2CCCN2C(=S)Nc2cccc(C)c2)cc1OC (configuration not stated)	-0.1	8	-4	0	2.5%	1.6
Cc1ccc(C)c(N2CCN(CC(=O)Nc3ccc4[nH]c(=O)[nH]c4c3)CC2)c1	0.4	-12	-2	-7	9.7%	-3.3
Cc1nnc(SCC(=O)Nc2ccc3c(c2)OCO3)s1	0.8	-4	-4	-16	0.6%	-2.6
Cc1nnc(SC(C)C(=O)N(C)C2CCCCC2)n1N (configuration not stated)	0.0	-5	0	-3	-0.1%	-0.9
Cc1cc(S(=O)(=O)N2CCCC2C(=O)N2CCOCC2)c(C)cc1Cl (configuration not stated)	-0.9	17	0	4	0.8%	-1.1
CCOC(=O)c1c(C)nc2sc3c(c2c1-c1ccc(OC)cc1)NC(c1ccccc1)NC3=O (configuration not stated)	0.5	-12	17	12	11%	-2.6

# Continuation.
Structure	TRPML1 ag	D2 potentiator	Six1-Eya2 inh	CtBP-E1A inh	PINK1 modulator	D2 ag
Cc1ccc(S(=O)(=O)N(C)Cc2ccc(C(=O)N/N=C3\CC(=O)CC(C)(C)C3)cc2)cc1	-0.2	-1	-5	0	4.4%	-1.8
Cc1noc(C)c1-c1ccc(C(=O)Nc2ccccc2)c2occc12	-0.1	-6	-22	-20	3.1%	-3.2
COc1ccc(C2CC(C(F)(F)F)n3nc(C(=O)O)cc3N2)cc1 (configuration not stated)	.	0	0	6	0.9%	-4.7
COc1cc2nc3n(c(=O)c2cc1OC)-c1cc2ccccc2cc1C(=O)NC3Cc1ccccc1 (configuration not stated)	2.0	1	-7	-5	-0.3%	-3.4
Cc1ccc(N2CCN(S(=O)(=O)c3ccc(F)cc3)CC2)c(C)c1	3.2	2	7	15	0.6%	1.1
CCCCC(=O)Nc1cccc(-c2nc3ncccc3o2)c1	0.4	-13	-14	-22	0.7%[38.3 µM]	-2.0
CC(=O)c1c(C)[nH]c(C(=O)OCC(=O)Nc2cc(S(=O)(=O)N3CCCCC3)ccc2C)c1C	0.4	-10	6	-6	4.4%	-6.8
CCOc1ccc(N(CC)C(=O)c2nn(-c3ccc(OC)cc3)c(=O)c3c2c2ccccc2n3C)cc1	2.0&2.0	-1	-7	7	6.2%&2.9%	-7.6
O=C(NNC(=O)c1ccccc1Cl)c1cccnc1	-0.4	-9	-3	-9	0.6%	-5.5
NS(=O)(=O)c1ccc(N=Nc2c(=O)[nH]n3c(=O)c4c([nH]c23)CCCC4)cc1	1.4	-11	-12	-10	-2.2%	-7.1
CCOC(=O)C1(Cc2ccccc2C)CCCN(Cc2cc(OC)c(O)c(OC)c2)C1 (configuration not stated)	-1.8	-9	-10	-8	-0.8%	-4.0
COc1cccc(N2CCN(c3ccc4nnc(CCC(=O)Nc5ccccc5OC)n4n3)CC2)c1	-0.9	6	-9	-21	1.4%	-2.2
CC(C)Cn1c(N)c(C(=O)COC(=O)c2cccnc2Cl)c(=O)n(C)c1=O	1.8	12	0	.	1.9%	2.6
COc1ccc(/C=N/NC(=O)C(=O)NCC2CCCO2)cc1 (configuration not stated)	2.2	-4	1	11	3.7%	0.9
Cc1[nH]ncc1N=Cc1ccc([N+](=O)[O-])cc1	4.6	3	-9	-5	0.9%	0.0
COC(=O)/C(=C\Nc1ccc(Cl)cc1Cl)NC(=O)c1ccc(Cl)cc1Cl	-0.4	-9	5	2	1.2%	-5.7
CC(C)(C)n1nnnc1C(c1cccs1)N1CCN(c2ccccc2)CC1 (configuration not stated)	0.7	4	9	7	0.1%	-0.7
CCCN1C(=O)/C(=C/c2ccncc2)SC1=S	-0.5	15	0	6	7.0%	2.0
N#Cc1ccc2c(c1)NC(=O)C1CCCN21 (configuration not stated)	-0.4	-10	4	11	5.4%	-7.1
O=C(O)c1ccccc1NC(=O)C(c1ccccc1)c1ccccc1	-0.3	-2	-13	-26	0.2%	-2.4

# Source: PubChem BioAssay
